AID923: qHTS Assay for Allosteric/Competitive Inhibitors of Caspase-1: Spectroscopic Profiling in AFC Spectral Region | 1.1% of 75,000 active | AID 923, 2007 | Potency, µM (highest dose often 57.5 µM), inactives show at the highest dose fluorescence increase, most hits filed as activators | compound fluorescence, AFC spectral region (405/520 nm); almost no hit is shown here; active = well fitted activation curve with a large enough effect; inconclusive = small, poorly fitted or top-dose-only effect;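 note: potency is the fitted concentration of half-maximal effect; 0% is about no effect; scaled to a free AFC standard on each plate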
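Baseline compound fluorescence (AFC region, 405 nm ex/520 nm em) taken from the intercept of kinetic reads with 50 nM caspase-1 and 5 uM Ac-WEHD-AFC; normalized to an on-plate AFC standard curve; compounds titrated up to 57 uM.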
TSHR agonist: TSH receptor (human) agonism | P16473 | HEK293-CNG-TSHR cells (CNG channel as cAMP sensor), membrane potential dye, cAMP | Potency, µM (titrated, usually from 57.1 µM), for the others: at the top dose activation, hits mostly activators | 0.48% of 73,000 active | AID 926; active = well fitted activation curve of enough size with the parental cells flat; inconclusive = any curve in the parental cells; inactive = parental cells flat and receptor cells flat or falling; note: potency is the fitted concentration of half-maximal effect; % of control where 0% means no effect; weak receptor curves with flat parental cells got no call and are not listed
Target sequence (P16473 whole entry, looked up): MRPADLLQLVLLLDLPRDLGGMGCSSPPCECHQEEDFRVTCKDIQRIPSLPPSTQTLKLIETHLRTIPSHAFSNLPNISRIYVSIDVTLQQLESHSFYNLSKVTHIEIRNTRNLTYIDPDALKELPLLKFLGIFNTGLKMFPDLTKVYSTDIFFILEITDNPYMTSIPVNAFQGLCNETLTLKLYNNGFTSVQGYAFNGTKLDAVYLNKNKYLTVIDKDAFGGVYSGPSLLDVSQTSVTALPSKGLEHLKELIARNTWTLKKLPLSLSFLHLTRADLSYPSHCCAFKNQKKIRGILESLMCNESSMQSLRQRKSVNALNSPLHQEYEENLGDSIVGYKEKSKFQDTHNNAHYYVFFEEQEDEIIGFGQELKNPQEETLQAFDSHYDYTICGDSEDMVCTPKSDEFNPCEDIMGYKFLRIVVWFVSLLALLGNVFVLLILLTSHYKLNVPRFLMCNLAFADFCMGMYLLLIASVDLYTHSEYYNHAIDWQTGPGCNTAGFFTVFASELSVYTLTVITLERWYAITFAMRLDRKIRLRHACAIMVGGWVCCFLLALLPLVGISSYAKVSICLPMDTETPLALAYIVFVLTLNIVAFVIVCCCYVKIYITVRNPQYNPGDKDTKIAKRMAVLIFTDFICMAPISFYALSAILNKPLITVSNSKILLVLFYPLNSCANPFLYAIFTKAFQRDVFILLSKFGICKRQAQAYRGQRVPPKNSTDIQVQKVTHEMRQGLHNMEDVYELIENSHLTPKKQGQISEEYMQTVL
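HEK 293 cells stably expressing TSHR and a cAMP-gated CNG channel; parental CNG-only cells as counterscreen. Cells preloaded 60 min with membrane potential dye plus 100 uM RO 20-1724, then compound 30 min; fluorescence read at 590 nm.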
Resorufin fluor: compound fluoresces in the resorufin spectral region. AID 588. Compound fluorescence, resorufin region 547/598 nm, buffer; active compounds read high. 0.04% of 59,000 active. max dye-equivalent concentration, M; active = above 10 nM dye equivalent; inconclusive = 1 to 10 nM; inactive = 1 nM or less; a few of its hits are not listed in these tables; note: highest value over a series up to 38 µM
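Dye-equivalent concentration values derive from comparing each well's 547/598 nm fluorescence against resorufin standards included on every plate. Incubation was 15 min at room temperature in 100 mM Tris, pH 8.0.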
A647 autofl: compound fluoresces in the A647 spectral region | Compound fluorescence, A647 channel (570/671 nm), Tris buffer | max dye-equivalent concentration, M | 59,000 tested, under 10 active | AID 592; active means above 1 µM dye equivalent; inconclusive means 0.1 to 1 µM; inactive means 0.1 µM or less;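 note: values scaled relative to a standard on each plate; highest value over a series up to 38 µM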
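Buffer was dispensed, compounds and Alexa 647 standards were pin-transferred, and plates sat 15 min at room temperature. Intensity at 570/671 nm was then converted to dye-equivalent concentration using the plate's A647 standard curve.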
A488 autofl: A488 region autofluorescence; max dye equivalency, M; AID 591; 0.1% of 59,000 active; compound autofluorescence, A488 spectral region, dye equivalency; active compounds read high; active = above 10 nM dye equivalent; inconclusive = 1 to 10 nM; inactive = 1 nM or less; about half of its hits are not listed in these tables;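 note: highest value over a series up to 38 µM; compound alone in buffer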
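Compound autofluorescence was read in 100 mM Tris pH 8.0 after 15 min at room temperature, ex 480 nm/em 540 nm. Intensities were converted to A488 dye-equivalent concentration using an on-plate six-point A488 standard curve.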
* marks the source's active call; other numbers are inactive results; i = inactive; ? = inconclusive; nt = no result given; [ ] = remark or other dose. These rows are one share of the data; the hit share may differ from the screen's.

SMILES	AID923	TSHR agonist	Resorufin fluor	A647 autofl	A488 autofl
CCOC(=O)c1sc2nc(CC(=O)OC)nc(NCCN3CCOCC3)c2c1C	0.0%	2.1%	i	1.6e-09	i
CCn1c(SCC(=O)NCCc2ccc(Cl)cc2)nnc1-c1cccs1	-0.5%	?	i	1e-09	i
O=C(OCC(=O)N1CCc2ccccc21)C1=COCCO1	-1.8%	-4.3%	i	1.6e-09	i
O=C(/C=C\c1ccc(O)c(O)c1)O[C@@H](Cc1ccc(O)c(O)c1)C(=O)O	1.0%	1.2%	nt	nt	nt
CSc1cc2c(cc1C(F)(F)F)N(C(=O)Nc1cccnc1)CC2	-0.5%	-5.5%	nt	nt	nt
N#Cc1ccccc1N=C1CCCN1Cc1ccccc1	-0.6%	?	nt	nt	nt
CCOC(=O)CC(N)c1ccc2c(c1)OCO2 (configuration not stated)	-0.8%	0.5%	i	3.2e-08	i
Cc1nnc(NC(=O)c2c(F)c(F)c(F)c(F)c2F)s1	-1.5%	-12.7%	i	1.07e-08	i
NC(=O)c1ccccc1N=Cc1ccccn1	3.3%	-5.5%	i	2.4e-09	i
Cc1csc(=O)n1CCC(=O)O	-0.4%	0.8%	i	2.02e-08	i
COc1ccc(Cn2nnnc2C(c2cc3cc(C)ccc3[nH]c2=O)N2CCOCC2)cc1 (configuration not stated)	2.4%	2.9%	i	3.46e-08	i
O=C1C(C=NCCN2CCOCC2)=C(O)c2ccccc21	-0.6%	-1.6%[11.4 µM]	nt	nt	nt
Cn1c(Cn2c(=O)sc3ccccc32)nnc1SCc1cccc(F)c1	0.3%	8.5%	nt	nt	nt
COc1ccc(C2C3=C(CC(C)(C)CC3=O)Oc3ncn(CC(C)C)c(=N)c32)cc1 (configuration not stated)	-0.4%	?	i	1e-09	i
COc1ccc(S(=O)(=O)N(C)CC(=O)Nc2c(F)cccc2F)cc1	0.1%	0.9%	i	2.58e-08	i
Cn1c(=O)[nH]c(=O)c2c1nc(N(CCO)Cc1ccccc1)n2Cc1ccccc1Cl	nt	nt	i	7.82e-08	i
O=C(NC1=NCCS1)Nc1ccccc1	1.7%	0.6%	i	2.71e-08	i
CCC/C=C(\CCC)C(NS(=O)(=O)c1ccc(C(F)(F)F)cc1)c1ccc(-c2ccccc2)cc1 (configuration not stated)	-1.7%	-3.6%	nt	nt	nt
CCN(C(=O)CN1CCN(C)CC1)c1cccc2ccccc12	-1.3%	?	i	7.2e-09	i
COc1ccc(C(=O)N2CCC3(CC2)CCN(C(c2ccccc2)c2ccccc2)CC3)cc1	0.5%	4.6%	i	1e-09	i
CCOC(=O)Cn1nc(C)c2ccccc2c1=O	nt	nt	i	1e-09	i
Cc1ccc(Nc2nc(CSc3nnnn3-c3ccccc3)cs2)cc1	1.4%	-2.9%	i	1.27e-08	i
O=C(O)C1C2C=CC(C2)C1C(=O)Nc1ccc2c(c1)OCCO2 (configuration not stated)	0.2%	-6.0%	i	1e-09	i
CCOC(=O)N1CCN(c2cc3[nH]c(=S)[nH]c3cc2F)CC1	0.7%	nt	i	1.85e-08	i
CCOc1ccc(-n2c(=O)cc(N3CCN(c4ccccc4)CC3)[nH]c2=O)cc1	-0.7%	?	i	2.5e-09	i

Entries listed so far that contain an aryl thioether with sulfur outside any ring:
SMILES	AID923	TSHR agonist	Resorufin fluor	A647 autofl	A488 autofl
CCn1c(SCC(=O)NCCc2ccc(Cl)cc2)nnc1-c1cccs1	-0.5%	?	i	1e-09	i
CSc1cc2c(cc1C(F)(F)F)N(C(=O)Nc1cccnc1)CC2	-0.5%	-5.5%	nt	nt	nt
Cn1c(Cn2c(=O)sc3ccccc32)nnc1SCc1cccc(F)c1	0.3%	8.5%	nt	nt	nt
Cc1ccc(Nc2nc(CSc3nnnn3-c3ccccc3)cs2)cc1	1.4%	-2.9%	i	1.27e-08	i

Additional compounds follow.
SMILES	AID923	TSHR agonist	Resorufin fluor	A647 autofl	A488 autofl
O=C(CSc1nnc2sc3ccccc3n12)NCc1ccco1	0.5%	24.3%	i	1e-09	i
Cc1[nH]c2ccc(-c3nnc(SCC(=O)c4ccccc4F)o3)cc2c1C	-1.8%	nt	i	1.51e-08	i
Cc1csc2ncc(C(=O)Nc3ccc(C(F)(F)F)cc3)c(=O)n12	-0.4%	0.5%	nt	nt	nt
CCc1ccc2[nH]c(=O)c(CN(CCN(C)C)C(=O)Nc3ccccc3OC)cc2c1	1.1%	?	i	4.7e-09	i
CC(C)CN1CCC2(CC1)CCN(C(=O)c1csnn1)CC2	3.4%	-0.4%	i	1e-09	i
Cc1cc2oc(=O)cc(CN3CCN(C/C=C/c4ccccc4)CC3)c2cc1O	-0.5%	?	i	2.43e-08	i
COC(=O)c1[nH]c2ccc(C)cc2c1NC(=O)CN1CCCC(C)(C)C1	1.0%	nt	i	8.4e-09	i
CCOc1ccc(C2/C(=C(\O)c3cccc(OC)c3)C(=O)C(=O)N2c2cc(C)on2)cc1OC (configuration not stated)	1.9%	4.4%	i	2.81e-08	i
O=P(O)(CCCP(=O)(O)CCc1ccccc1)CCc1ccccc1	-2.0%	5.3%	i	4.85e-08	i
CCOC(=O)C1CCCN(C(=O)C2CCCN(S(C)(=O)=O)C2)C1 (configuration not stated)	-0.3%	-4.2%	i	1e-09	i
COc1ccccc1CNc1n[nH]c(NCc2ccccc2OC)n1	-1.6%	7.8%	i	3.26e-08	i
O=C(CCN1C(=O)c2ccccc2C1=O)NC1=NCCS1	0.9%	?	i	1.5e-09	i
O=C(CCNS(=O)(=O)c1cccc2nonc12)N1CCN(c2cccc(Cl)c2)CC1	1.0%	-27.8%	i	3.5e-09	i
O=C(NCC1CCCO1)c1cccc(-n2cnnn2)c1 (configuration not stated)	0.9%	-1.7%	i	2.97e-08	i
CCCOC(=O)CCc1n[nH]c(=O)[nH]c1=O	0.1%	3.0%	i	3.5e-09	i
Cc1noc(C)c1COC(=O)COc1ccc2c(C)cc(=O)oc2c1	1.0%	1.0%	i	1e-09	i
COC(=O)C1(Cc2ccccc2)C=C2C(=C(C(C)C)C(=O)C2C)CN1 (configuration not stated)	14.1%	?	nt	nt	nt
Cc1cnc(CNc2nc(-c3ccccc3C(F)(F)F)nc3ccccc23)cn1	0.6%	13.2%	i	1.48e-08	i
O=C(COC(=O)C1(c2ccccc2F)CCCC1)N1CCN(C(=O)c2ccco2)CC1	0.1%	?	i	9.1e-09	i
COC(=O)c1ccccc1NC(=O)c1nc2nc(C)cc(C(F)F)n2n1	-1.8%	0.0%	i	4.54e-08	i
N#CC1=C(N)Oc2n[nH]c(-c3ccc(F)cc3)c2C1c1cccc(OC(=O)N2CCOCC2)c1 (configuration not stated)	0.0%	16.3%	i	1e-09	i
COc1ccccc1CNC(=O)c1ccc(CS(=O)(=O)c2ccccc2OC)o1	3.2%	5.6%	i	1.13e-08	i
Cc1c(C(=O)O)oc2ccc(S(=O)(=O)NCc3ccc(F)cc3)cc12	-0.3%	1.9%	i	1e-09	i
Cc1c(NC(=O)CSc2nc3c(cnn3-c3ccccc3)c(=O)[nH]2)c(=O)n(-c2ccccc2)n1C	0.5%	2.4%	i	1e-09	i
CCOC(=O)C(C)n1cnc2c(oc3ccccc32)c1=O (configuration not stated)	1.2%	0.1%	i	5e-09	i
Next entries follow.
SMILES	AID923	TSHR agonist	Resorufin fluor	A647 autofl	A488 autofl
CCOC(=O)c1ccc(S(=O)(=O)N2CCN(CCC#N)CC2)cc1	1.9%	-7.7%	nt	nt	nt
CCOC(=O)CNC(=O)CSc1nnc(-c2ccco2)n1N	3.9%	9.3%	i	1.1e-09	i
O=C(CSc1nnc(-c2ccco2)n1Cc1ccccc1)c1ccccc1	-2.5%	3.1%[11.4 µM]	i	1.64e-08	i
COC(=O)c1ccc(NC(=O)CSc2nnc(CNc3ccc(F)cc3)n2C)cc1	-0.6%	-14.9%	i	3.4e-09	i
COCc1cc(=O)[nH]c(Nc2nc3ccccc3o2)n1	nt	nt	i	6.81e-08	i
CCN(CC)C(=O)C1CCN(S(=O)(=O)c2ccc3oc4ccccc4c3c2)CC1	2.1%	?	nt	nt	nt
COc1ccc(S(=O)(=O)N(C)CC(=O)Nc2ccccc2OC)cc1C	-0.5%	21.9%	i	3.26e-08	i
COc1ccc(-n2c(Cc3cccn3C)nnc2SCC(=O)Nc2ccc(Cl)cc2)cc1	0.0%	-4.9%	nt	nt	nt
CCOc1ccc(C(C)C)cc1S(=O)(=O)Nc1ccc(Cl)cn1	1.6%	?	i	1e-09	i
Cc1ccc2oc(C(=O)NCc3ccc4c(c3)OCO4)c(C)c2c1	0.0%	?	i	1e-09	i
CN(C)c1ccc(N=Nc2cccc3ccoc23)cc1	2.5%[11.5 µM]	-14.8%[11.4 µM]	i	7e-09	i
Cc1nnc(NCCN2CCOCC2)[nH]c1=O	1.6%	5.6%	i	1e-09	i
c1cncc(CNc2ncn[nH]2)c1	6.1%[11.5 µM]	-0.4%[11.4 µM]	i	2.6e-08	i
Cc1cc2n(n1)C(c1ccsc1)Nc1ccccc1-2 (configuration not stated)	0.4%	0.2%[11.4 µM]	i	1e-09	i
Cc1c(NC(=O)c2cnn3cccnc23)c(=O)n(-c2ccccc2)n1C	-2.1%	1.6%	i	2.37e-08	i
CCN(CC)C(=O)CSc1nc2ncccc2[nH]1	0.3%	6.3%	i	4.8e-09	i
CC(=O)Nc1ccc(NC(=O)c2oc3cc(C)c(C)cc3c2C)cc1	0.3%	-3.1%	nt	nt	nt
CCOC(=O)C1CCCN(C(=O)Cc2c(C(=O)O)[nH]c3ccccc23)C1 (configuration not stated)	-0.3%	-3.2%	i	1e-09	i
Cc1nc2ccccc2c(=O)n1NC(=O)COc1ccccc1	-1.2%	11.7%	nt	nt	nt
CS(=O)(=O)N1CCCC(C(=O)NCc2ccc(F)cc2Cl)C1 (configuration not stated)	-1.3%	9.2%	i	1e-09	i
COc1cc(Cl)c(S(=O)(=O)NCCCN2CCOCC2)cc1Cl	1.7%	4.7%	i	1.08e-08	i
CCCCOc1ccc(/C=c2\sc3ncnn3c2=O)cc1	-0.1%	-2.8%	i	3.5e-08	i
CCOC(=O)c1c(C)[nH]c(C(=O)OCC(=O)N2c3ccccc3CC2C)c1C (configuration not stated)	0.2%	8.7%	i	1e-09	i
O=C(CSc1nnnn1-c1ccc2c(c1)OCO2)NCc1ccccc1	-0.1%	14.0%	i	2.25e-08	i
COC(=O)CN(c1c(C)cccc1C)S(C)(=O)=O	-1.1%	7.6%	i	1e-09	i
Remaining list, next part:
SMILES	AID923	TSHR agonist	Resorufin fluor	A647 autofl	A488 autofl
COC(=O)C1CCCN1C(=O)C1CCCN1C(=O)CNC(=O)OCc1ccccc1 (configuration not stated)	0.2%	-0.9%[11.4 µM]	i	5.6e-09	i
CC(C)CCOc1ccc(C(=O)O)cc1	-2.1%	-0.6%	i	1.41e-08	i
COc1ccc2c(c1)-c1ccccc1S(=O)(=O)N2C(C)=O	1.1%	-3.4%	i	8.3e-09	i
COc1ccccc1N1CCN(CC(O)c2ccc3cc[nH]c3c2)CC1 (configuration not stated)	2.3%	3.7%	nt	nt	nt
O=C(O)/C=C(/C(=O)O)[C@]12CCN3CC4=CCO[C@@H]5CC(=O)N[C@@H]1[C@H]5[C@H]4C[C@H]32	-0.1%[11.5 µM]	-1.0%[11.4 µM]	i	1e-09	i
COc1ccc(C(=O)Nc2cc(OC)cc(OC)c2)cc1	3.0%	2.9%	nt	nt	nt
Cc1ccc2nc(-c3ccccn3)oc2c1	1.5%	-1.7%	i	1.2e-09	i
CC(=O)Nc1ccc(S(=O)(=O)N2CCCCC2c2cccnc2)cc1 (configuration not stated)	0.4%	-0.2%[11.4 µM]	i	1e-09	i
CCOC(=O)c1[nH]c2ccc(OC)cc2c1C	nt	nt	i	1e-09	i
C/C(=N\O)C(=O)NCCCNCCCN(C)C	nt	nt	i	1.47e-08	i
COc1cccc(Oc2ccc(N)cc2)c1	-1.1%	8.4%	i	1e-09	i

Screening results deposited in PubChem BioAssay by National Center for Advancing Translational Sciences (NCATS).
